High-throughput results: PubChem BioAssay, several laboratories
RecA intein inh: Mtb RecA intein splicing inhibition | P9WHJ3 | cell-free RecA intein splicing, fluorescence | inhibition, %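 (about 9 µM by stock and volumes)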 | hit rate 0.75% among 290,000; in the data active means inhibition above about 30%; inconclusive means no clear call, values can overlap the other calls;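 further: 0% = vehicle wells and 100% = reference inhibitor control wells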
Target sequence (P9WHJ3 whole entry, looked up): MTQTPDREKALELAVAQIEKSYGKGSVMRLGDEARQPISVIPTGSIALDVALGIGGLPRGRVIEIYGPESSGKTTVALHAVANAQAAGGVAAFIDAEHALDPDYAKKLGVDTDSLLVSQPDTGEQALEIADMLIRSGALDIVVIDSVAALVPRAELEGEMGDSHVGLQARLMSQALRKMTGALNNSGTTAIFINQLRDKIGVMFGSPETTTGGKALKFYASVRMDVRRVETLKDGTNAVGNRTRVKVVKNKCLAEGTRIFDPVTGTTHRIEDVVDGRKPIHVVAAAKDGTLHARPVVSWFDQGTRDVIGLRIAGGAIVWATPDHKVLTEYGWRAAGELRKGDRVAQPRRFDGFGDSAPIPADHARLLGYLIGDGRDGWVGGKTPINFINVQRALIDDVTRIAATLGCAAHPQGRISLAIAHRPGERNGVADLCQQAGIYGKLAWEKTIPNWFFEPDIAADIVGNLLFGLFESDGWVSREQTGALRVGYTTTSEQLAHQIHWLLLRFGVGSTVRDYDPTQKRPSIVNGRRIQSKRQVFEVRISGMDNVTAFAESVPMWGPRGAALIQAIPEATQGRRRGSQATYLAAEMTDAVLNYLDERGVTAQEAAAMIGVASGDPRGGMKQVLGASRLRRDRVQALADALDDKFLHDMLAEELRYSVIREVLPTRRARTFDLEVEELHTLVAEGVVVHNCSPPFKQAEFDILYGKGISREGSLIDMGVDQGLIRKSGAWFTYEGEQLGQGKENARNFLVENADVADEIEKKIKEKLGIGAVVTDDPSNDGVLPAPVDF
Arbovirus anti: arbovirus infection inhibition | hit rate 0.37% among 200,000 | arbovirus infection cell-based antiviral screen | AID 1251 | inhibition, % at 10 µM;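 active means inhibition from about 30%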;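 further: bluetongue infection of BSR cells; cell survival read as ATP light after 72 h; 0% = infected wells without compound and 100% = uninfected wells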
Mtb bLac sens: beta-lactam sensitization of Mtb H37Rv; hit rate 0.27% among 330,000; AID 434955; inhibition, % at 25 µM; M. tuberculosis H37Rv growth with meropenem, percent inhibition; hits of this screen are not shown here;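 active means about 74% or more and at least 40 points above the plate without the antibiotic, then above 30% in a dose series; inconclusive means first-round hits that could not be retested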;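 further: growth measured after seven days incubation then overnight dye step; 0% = bacteria only wells and 100% = bacteria with antibiotic; twin plates without the antibiotic show which effects depend on it; some results filed as inactive read as strong as hits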
Mtb H37Rv: M. tuberculosis H37Rv growth inhibitors, H37Rv strain (AID 1626); M. tuberculosis H37Rv growth inhibition; higher % means a stronger effect; one-dose inhibition, % at 10 µM; IC50 in µM for titrated hits; hit rate 0.95% among 220,000;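 active means confirmed in a dose series; inconclusive means inhibition above 80% but not taken into the dose series; inactive means below 80% or under 30% at every dose of the series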;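 further: bacteria incubated seven days before Alamar blue readout; 0% = bacteria only wells and 100% = bacteria with antibiotic wells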
YopH PTP inh: YopH (Yersinia) phosphatase inhibition | inhibition, %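 (about 10 µM by stock and volumes)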 | fluorescence Ex485/Em525 | hit rate 0.16% among 140,000;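 active means inhibition of 50% or more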;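 further: controls were vehicle for no effect and minimum signal wells for full effect; inactives centre near -20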
Arbovirus anti repeat: recorded beside Arbovirus anti, whose call it bears; inhibition, %; measured here: 10K subset replicate screen; many hits read low in the repeat;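 first of two repeat runs on a subset; 0% = infected and 100% = uninfected wells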
Numbers without * were called inactive. Some of the compounds tested, so the mix of outcomes need not match the whole.

`O=C(Nc1ccccc1NC(=O)c1csnn1)c1csnn1` gave RecA intein inh -2.7, Arbovirus anti -7, Mtb bLac sens 0 and Mtb H37Rv 3%.
For COc1ccc(C2C(C(=O)Nc3cccc(C)n3)c3ccccc3C(=O)N2C)cc1OC (configuration not stated) the results were Arbovirus anti -4, Mtb bLac sens -4, Mtb H37Rv -6%, YopH PTP inh -48 and Arbovirus anti repeat -2.
Screening CSc1nc2sc3c(c2c(=O)[nH]1)CCC(C)C3 (configuration not stated) returned RecA intein inh -0.5, Arbovirus anti -4, Mtb bLac sens -2, Mtb H37Rv 7% and YopH PTP inh -10.
Cn1c(N)c(C(=O)CNC2CCCCC2)c(=O)n(C)c1=O was read as RecA intein inh 1.4, Mtb bLac sens -10 and Mtb H37Rv 8%.
For CCOC(=O)N1CCN(C(=O)CNS(=O)(=O)c2c(C)cc(C)cc2C)CC1 the results were RecA intein inh -2.1 and Mtb bLac sens 0.
CCC(C)NC(=O)/C=C/c1cccs1 (configuration not stated) was read as RecA intein inh -0.1, Arbovirus anti 4, Mtb bLac sens inconclusive, Mtb H37Rv 2% and YopH PTP inh -32.
`CN(C)S(=O)(=O)c1cc(C(=O)NCc2ccccc2)c(Cl)cc1Cl` gave RecA intein inh -0.2, Arbovirus anti -4, Mtb bLac sens -6 and Mtb H37Rv -6%.
For COc1ccc(C(=O)NC2CCN(C(=S)Nc3ccccc3C)CC2)cc1 the results were RecA intein inh 0.0, Arbovirus anti 0, Mtb bLac sens 1 and Mtb H37Rv 3%.
For CCOC(=O)CC(c1ccc([N+](=O)[O-])cc1)n1c(C)ccc1C (configuration not stated) the results were RecA intein inh 1.0, Arbovirus anti 2, Mtb bLac sens -1 and Mtb H37Rv -6%.
`O=C(O)c1ccc(Cn2cnc3scc(-c4ccccc4)c3c2=O)cc1` gave RecA intein inh 0.0, Arbovirus anti 1, Mtb bLac sens -3 and Mtb H37Rv 1%.
Screening Cc1ccc(S(=O)(=O)NC(C(=O)Oc2ccc3c(C(F)(F)F)cc(=O)oc3c2)c2ccccc2)cc1 (configuration not stated) returned RecA intein inh inactive, Arbovirus anti -6, Mtb bLac sens -1, Mtb H37Rv -5% and YopH PTP inh -31.
O=C1C(Cc2ccccc2)C(c2ccccc2)N1c1ccccc1 (configuration not stated) was read as RecA intein inh 6.1, Arbovirus anti -10, Mtb bLac sens -4, Mtb H37Rv 1% and YopH PTP inh -24.
COc1ccc(NC(=O)c2ncn[nH]2)cc1 was read as RecA intein inh 0.7, Arbovirus anti -4, Mtb bLac sens -2, Mtb H37Rv -3% and YopH PTP inh -16.
`COc1ccc(-n2nc(C(=O)NCC(=O)N3CCN(c4ccccn4)CC3)c3ccccc3c2=O)cc1Cl` gave RecA intein inh 3.7, Arbovirus anti 4, Mtb bLac sens 8 and Mtb H37Rv 9%.
Screening Cn1nnc(NC(=S)NC(=O)c2ccccc2)n1 returned Mtb bLac sens 2 and Mtb H37Rv -1%.
Screening COc1ccccc1C(=O)OCC(=O)Nc1ccc(Cl)cn1 returned RecA intein inh 3.1, Arbovirus anti 1, Mtb bLac sens 96 and Mtb H37Rv 23µM*.
COc1ccc(S(=O)(=O)Nc2c(NC3CCCCC3)c3ccccc3oc2=O)cc1Cl was read as RecA intein inh -1.5 and Mtb bLac sens 7.
For O=C(NCCN1CCCC1)c1ccccc1Cl the results were RecA intein inh -4.5, Arbovirus anti -3, Mtb bLac sens -3 and Mtb H37Rv 0%.
For COc1cc(/C=c2\sc3n(c2=O)CCCN=3)ccc1O the results were RecA intein inh -4.0, Arbovirus anti 7, Mtb bLac sens 10, Mtb H37Rv 3% and YopH PTP inh -6.
Screening C=CCOC(=O)C1=C[C@@H](c2ccc(C(F)(F)F)cc2)C[C@@H](OCc2ccc(CO)cc2)O1 returned RecA intein inh 6.5, Mtb bLac sens -4 and Mtb H37Rv 13%.
CC1CC(C)CN(C(=O)Cc2c(C(=O)O)[nH]c3ccc(Cl)cc23)C1 (configuration not stated) was read as RecA intein inh -1.0, Arbovirus anti 2, Mtb bLac sens 0 and Mtb H37Rv -6%.
`Nc1nonc1-n1nnc(C(=O)N/N=C/c2ccccc2)c1CSc1ccccc1` gave Mtb bLac sens -4 and Mtb H37Rv 7%.
`Nc1nncn1C(=O)CCCN1C(=O)c2ccccc2C1=O` gave RecA intein inh 2.5, Arbovirus anti -1, Mtb bLac sens -3, Mtb H37Rv -5% and YopH PTP inh 6.
`O=C(Nc1cc(-c2ccccc2)[nH]n1)c1ccccc1` gave RecA intein inh 2.6, Mtb bLac sens -7 and Mtb H37Rv 1%.
For COCC(=O)N1CCC(Oc2ccc(C(=O)NCc3cnc(C)cn3)cc2)CC1 the results were RecA intein inh -2.0, Arbovirus anti -2, Mtb bLac sens -9 and Mtb H37Rv 6%.
Cc1nc(N2CCOCC2)[nH]c(=O)c1[N+](=O)[O-] was read as RecA intein inh 0.0, Mtb bLac sens 0 and Mtb H37Rv 0%.
For O=S(=O)(Nc1ccn(-c2ccccc2)n1)c1ccc(Br)cc1 the results were RecA intein inh 2.7, Arbovirus anti -3, Mtb bLac sens 99, Mtb H37Rv 30µM* and YopH PTP inh -105.
For CCCCN(C)S(=O)(=O)c1cc2c3c(c1)CCC(=O)N3CCC2 the results were RecA intein inh -1.5 and Mtb bLac sens -8.
Screening COc1ccccc1C(=O)NNC(=O)c1ccc2ccccc2c1 returned RecA intein inh -4.3 and Mtb bLac sens 1.
`O=C(O)C1=CCCNC1` gave RecA intein inh 1.1, Mtb bLac sens 5 and Mtb H37Rv -6%.

Arranged by SMILES length (largest number first): some entries from above.
Screening COc1ccccc1C(=O)NNC(=O)c1ccc2ccccc2c1 returned RecA intein inh -4.3 and Mtb bLac sens 1.
For COc1cc(/C=c2\sc3n(c2=O)CCCN=3)ccc1O the results were RecA intein inh -4.0, Arbovirus anti 7, Mtb bLac sens 10, Mtb H37Rv 3% and YopH PTP inh -6.
Screening Cn1nnc(NC(=S)NC(=O)c2ccccc2)n1 returned Mtb bLac sens 2 and Mtb H37Rv -1%.

The listing continues.
`N/C(=N\OC(=O)CC1CCCCC1)c1cccc(Br)c1` gave RecA intein inh 1.5 and Mtb bLac sens 55.
Screening COCC1CCN(Cc2cn[nH]c2-c2cc(OC)c(OC)c(OC)c2)CC1 returned RecA intein inh -2.3, Arbovirus anti 1, Mtb bLac sens 3 and Mtb H37Rv -2%.
For COc1cc2c(cc1OC)CN(C(=O)/C=C/c1cc(OC)c(OC)c(OC)c1)CC2 the results were RecA intein inh 0.0 and Mtb bLac sens 17.
`Cc1ccc(C(=O)NNC(=O)C2CCN(S(=O)(=O)c3ccc(C)cc3)CC2)cc1` gave RecA intein inh -0.8, Mtb bLac sens -3 and Mtb H37Rv -5%.
`COc1ccc(-n2ncc3c(=O)n(CC(=O)NC(C)C)cnc32)cc1` gave RecA intein inh -1.5 and Mtb bLac sens -6.
`Nc1ccc(C(=O)OCC(=O)Nc2ccc([N+](=O)[O-])cc2C(F)(F)F)cc1` gave RecA intein inh -0.9, Arbovirus anti -4, Mtb bLac sens -8, Mtb H37Rv 10% and YopH PTP inh -17.
Screening COCCCNC1=C(Cl)C(=O)c2ccccc2C1=O returned RecA intein inh 19, Mtb bLac sens 4 and Mtb H37Rv -6%.
For COc1cc(NC(=O)CSc2nc3ncnc(N)c3[nH]2)c(C(=O)O)cc1OC the results were RecA intein inh 6.7 and Mtb bLac sens 5.
Cc1ccc(S(=O)(=O)NCc2ccc(C(=O)NCCCN3CCN(C)CC3)cc2)cc1 was read as RecA intein inh 3.0, Arbovirus anti 10, Mtb bLac sens -9, Mtb H37Rv -5% and YopH PTP inh -45.
`Cc1nc(-c2coc3cc(O)c(C)cc3c2=O)cs1` gave RecA intein inh 2.0, Arbovirus anti -13, Mtb bLac sens -1, Mtb H37Rv 10% and YopH PTP inh -26.
`CSc1ccc(CN(C)CC(=O)NC(=O)NC(C)(C)C)cc1` gave RecA intein inh 7.8, Arbovirus anti 7, Mtb bLac sens 2, Mtb H37Rv -4% and YopH PTP inh -43.
COc1ccc(C(=O)N=S2CCN(C(=O)c3ccc(Cl)cc3)CC2)cc1 was read as Mtb bLac sens -2 and Mtb H37Rv -8%.
O=C(Nc1ccc(Br)cc1)c1ccco1 was read as RecA intein inh -0.5, Arbovirus anti -2, Mtb bLac sens -8, Mtb H37Rv -4% and YopH PTP inh 1.
C/C(=N\S(=O)(=O)c1ccc(C)cc1)N(C)C was read as RecA intein inh 0.0, Mtb bLac sens -6 and Mtb H37Rv -14%.
For Cc1ccc(NC(=O)Cn2cccc2)c(C)c1 the results were RecA intein inh -1.6, Arbovirus anti -5, Mtb bLac sens -1, Mtb H37Rv -9% and YopH PTP inh -6.
Screening Cc1ccc(-c2nc(CSCC(=O)N3CCN(C(=O)c4ccco4)CC3)c(C)o2)cc1 returned RecA intein inh 4.5, Arbovirus anti 2, Mtb bLac sens 7, Mtb H37Rv -5%, YopH PTP inh -7 and Arbovirus anti repeat 3.
Screening CC(OC(=O)c1cc(=O)[nH]c2ccccc12)C(=O)NC1CCCCC1C (configuration not stated) returned RecA intein inh -2.1 and Mtb bLac sens -4.
Screening O=C(NCc1cccnc1)C(=O)Nc1nc(-c2ccccc2)cs1 returned RecA intein inh 1.3, Mtb bLac sens 44 and Mtb H37Rv 17%.
Screening CCOc1cc(N2CCOCC2)c(OCC)cc1NC(=O)CN1C(=O)NC2(CCCCCCC2)C1=O returned RecA intein inh -1.7, Arbovirus anti -7, Mtb bLac sens -9 and Mtb H37Rv -9%.
Cc1cc(C)c2cc(C#N)c(SCC(=O)Nc3ccc4c(c3)OCO4)nc2c1 was read as RecA intein inh -0.7 and Mtb bLac sens -1.
`CCOc1cccc(OCCOc2ccc(C(=O)c3ccccc3)cc2)c1` gave RecA intein inh 1.4, Arbovirus anti 15, Mtb bLac sens 68, Mtb H37Rv 26% and YopH PTP inh -40.
O=C(NCc1ccncc1)c1cccc(F)c1 was read as RecA intein inh 1.3, Arbovirus anti -4, Mtb bLac sens -11, Mtb H37Rv -5% and YopH PTP inh -41.
CCCOc1ccc(CC(CC(=O)O)(C(=O)O)C(=O)O)cc1 was read as RecA intein inh 2.7, Arbovirus anti 6, Mtb bLac sens -7, Mtb H37Rv -9% and YopH PTP inh -7.
Screening COC(=O)C1=NNC2(c3ccc(C)cc3)C(=O)N(c3ccc(C)cc3)C(=O)C12 (configuration not stated) returned RecA intein inh 0.0, Arbovirus anti -1, Mtb bLac sens -5 and Mtb H37Rv 3%.
`NS(=O)(=O)c1ccc(N/N=C/c2ccc(C(=O)O)cc2)c([N+](=O)[O-])c1` gave RecA intein inh 0.7, Mtb bLac sens -4 and Mtb H37Rv -12%.
`NS(=O)(=O)c1ccc(S(=O)(=O)c2ccccc2)nc1` gave RecA intein inh 0.2 and Mtb bLac sens -1.
Screening Cc1ccc(C2=NN(CC(=O)NCCN(C)C)C(=O)CC2)cc1 returned RecA intein inh -0.9 and Mtb bLac sens -5.
For Cc1[nH]c2ccccc2c1N=Nc1c(C)n(C)n(-c2ccccc2)c1=O the results were RecA intein inh 0.4, Arbovirus anti 4, Mtb bLac sens 2 and Mtb H37Rv 0%.
Screening CCn1c(C(O)c2ccccc2)nc2ccccc21 (configuration not stated) returned RecA intein inh 0.5, Arbovirus anti 6, Mtb bLac sens 4, Mtb H37Rv -1% and YopH PTP inh -34.
For CC(C)(C)n1nc2c(c1NC(=O)COc1ccc(Cl)cc1)CS(=O)(=O)C2 the results were RecA intein inh 2.7, Arbovirus anti 16, Mtb bLac sens -7 and Mtb H37Rv 1%.
For CCc1cccc(NS(=O)(=O)c2c(C)n[nH]c2C)c1 the results were RecA intein inh -0.7, Arbovirus anti -1, Mtb bLac sens -4, Mtb H37Rv -7% and YopH PTP inh -26.
Screening Cc1c(C)n(CCc2c[nH]c3ccccc23)ccc1=O returned RecA intein inh 5.0, Arbovirus anti 9, Mtb bLac sens -1 and Mtb H37Rv -2%.
O=C(COC(=O)CCC(=O)c1ccc(Cl)cc1)NCC1CCCO1 (configuration not stated) was read as RecA intein inh 1.2, Arbovirus anti 4, Mtb bLac sens -6, Mtb H37Rv 1% and YopH PTP inh -15.
Screening Cc1ccc(-c2cc(C(=O)NCc3cccs3)no2)cc1 returned RecA intein inh 1.5, Arbovirus anti 1, Mtb bLac sens 12, Mtb H37Rv 3% and YopH PTP inh 14.
Screening Cc1c(C(=O)N2CCCc3ccccc32)oc2ccc(S(=O)(=O)N3CCOCC3)cc12 returned RecA intein inh 2.2, Arbovirus anti 9, Mtb bLac sens 3, Mtb H37Rv 4% and YopH PTP inh -18.
Screening O=C(NC1CCCCC1)C1CC(=O)N(c2ccc(Cl)cc2)C1 (configuration not stated) returned RecA intein inh 0.3, Arbovirus anti 2, Mtb bLac sens -3, Mtb H37Rv -12%, YopH PTP inh -39 and Arbovirus anti repeat -2.
`COCCCNC(=O)C1CC(=O)N(c2ccc(C)cc2)C1` (configuration not stated) gave Arbovirus anti 4, Mtb bLac sens 0, Mtb H37Rv -12% and YopH PTP inh -27.
